B2AR ag – human beta-2 adrenergic receptor agonism by FAP; Am2.2-beta2AR cells, FAP receptor internalization, flow cytometry; reference of the scale not given here; response, % (test concentration not listed); 0.43% of 340,000 active;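 active = response above a set limit, near 3 SD of response in nonfluorescent compounds, cut at about 42% in these data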;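 note: stock transfer was 100 nL into about 11 µL; a reference agonist was the positive control; negative values mostly stem from fluorescent compounds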
Target sequence (P07550 whole entry, looked up): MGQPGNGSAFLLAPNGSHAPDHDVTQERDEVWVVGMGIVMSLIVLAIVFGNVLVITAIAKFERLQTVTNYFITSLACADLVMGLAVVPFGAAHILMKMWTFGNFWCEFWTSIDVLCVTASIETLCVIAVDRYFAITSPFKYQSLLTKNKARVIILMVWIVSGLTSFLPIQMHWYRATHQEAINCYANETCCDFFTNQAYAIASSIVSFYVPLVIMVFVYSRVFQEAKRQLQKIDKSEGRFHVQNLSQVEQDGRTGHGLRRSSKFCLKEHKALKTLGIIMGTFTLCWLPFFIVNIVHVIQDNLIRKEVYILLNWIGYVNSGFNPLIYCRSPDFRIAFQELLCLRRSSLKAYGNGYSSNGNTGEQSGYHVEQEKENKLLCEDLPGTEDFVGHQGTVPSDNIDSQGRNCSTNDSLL
rRNA inh HTS – inhibitors of bacterial rRNA selective over humanized ribosomes; GFP signal change (wild-type ribosome), % (no concentration beside the values); E. coli WT GFP vs humanized-ribosome RFP mutants, fluorescence, 24 h; hits give low values; DMSO median 0, no signal -100; AID 720706; 1.6% of 350,000 active;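 active = significant combined selectivity score with lowered wild-type GFP, culture density cut under 30%, mutant RFP and density less affected; inactive = any of these conditions unmet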; note: one replicate is shown; some compounds called inactive have numbers as strong as hits
rRNA inh HTS OD600 – further read-out of rRNA inh HTS, marked with its call; OD600 change, %; measured here: OD600 growth;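 optical density of the mix in the first replicate; 0 = DMSO median and -100 = no signal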
rRNA inh HTS RFP – also measured in rRNA inh HTS; calls as there; RFP signal change, %; measured here: RFP humanized mutant strains;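 first replicate; 0 = DMSO median and -100 = no signal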
Active calls of the source: *; & = joins results of further samples. This is a subset. The share of hits here may be higher or lower than overall.

SMILES	B2AR ag	rRNA inh HTS	rRNA inh HTS OD600	rRNA inh HTS RFP
CCCc1nnn(S(=O)(=O)c2ccc([N+](=O)[O-])cc2)c1CCC	3	10	6	3.6
S=c1[nH]nc(SCc2ccccc2)c2[nH]cnc12	9	-17*	-21*	1.4*
CN(C(=O)c1cccc(NC(=O)Cc2cccc(NC(=O)C3CCCN(C(=O)C4CCCCC4)C3)c2)c1)C1CC1 (stereo unspecified)	-3	-17	-2	-1.9
CCOC(=O)c1sc(NC(=O)CC2OC(=O)c3ccccc32)nc1C (stereo unspecified)	3	-8	-10	1.1
CC(C)(C)OC(=O)N(CCc1ccccc1)Cc1ccccc1OCc1cccc(NC(=O)C2CCC2)c1	2	11	11	-4.7
Cc1cc(C(=O)COC(=O)c2ccc(NC(=O)CC#N)cc2)c(C)n1C1CC1	9	0	3	0.0
CCOC(=O)c1c(CC(C)C)csc1NC(=O)COC(=O)c1ccc(O)cc1	10	-1	15	0.1
C[C@@H](NC(=O)Cn1cnc2c(NCc3ccccc3)ncnc21)c1cccc2ccccc12	1	-2	-12	-2.0
Cc1ccc(S(=O)(=O)NC(=O)N2CCCC2)cc1	5	16	10	-0.6
COc1ccccc1C=C1SC(=S)NC1=O	10	-4	3	13
CN(CC(=O)Nc1c(Cl)cccc1Cl)C(=O)CNC(=O)c1sc2ccccc2c1Cl	-9	18	25	-1.7
CCN(c1ccccc1)S(=O)(=O)c1ccc(Cl)c(NC(=O)CN(C)Cc2cccc(F)c2)c1	5	7	9	8.1
CNc1c2cccc(C)c2nc2c(C(=O)NCCN(C)C)cccc12	-187	-41	-77	-15
CCOC(=O)C1=C(COC(=O)c2ccc(Cl)nc2)NC(=O)NC1C (stereo unspecified)	5	8	4	3.0
COc1ccc(C=C2NC(=S)NC2=O)cc1	6	-8	11	2.1
O=C(CN1C(=O)c2ccccc2C1=O)NC1(C(=O)O)CCCC1	-5	7	9	5.1
CCOc1ccc(N2CC(C(=O)NCCN3C(=O)S/C(=C/c4cccnc4)C3=O)CC2=O)cc1 (stereo unspecified)	-5	4	7	-0.8
CC(=O)C1(O)C(C)CC2C3CC=C4CC(O)CCC4(C)C3CCC21C (stereo unspecified)	1	8	7	2.2
S=C(Nc1cccc2ccccc12)Nc1cccc2ccccc12	1	-12	19	-9.4
CC(C)NC(=O)N(C)C[C@H]1Oc2c(NC(=O)Nc3ccc4c(c3)OCO4)cccc2C(=O)N([C@H](C)CO)C[C@@H]1C	7	2&-7	7&-2	-1.6&-3.4
Nc1cc(S(=O)(=O)N2CCOCC2)ccc1Oc1cccc(Br)c1	9	-14	-31	-6.2
COc1ccc(CCOC2OC(CO)C(OC(=O)/C=C/c3ccc(O)c(OC)c3)C(O[C@H]3O[C@@H](C)[C@H](O)[C@@H](O)[C@H]3O)C2O)cc1O (stereo partly specified)	2	3	10	2.3
COc1ccc(C=CC(O)CCN2CCC3CCC(C3)C2)cc1 (stereo unspecified)	-5	13	11	2.6
OCC1OC(n2cnc3c(NCc4ccco4)ncnc32)C(O)C1O (stereo unspecified)	7	5	16	-1.7
Cc1ccsc1C(=O)Nc1cc(Cl)ccc1-n1cncn1	7	-6	-11	-0.1
SMILES	B2AR ag	rRNA inh HTS	rRNA inh HTS OD600	rRNA inh HTS RFP
CCOC(=O)N1CCN(C(=O)c2cccc(S(=O)(=O)Nc3ccc(F)cc3)c2)CC1	-7	-4	-7	1.2
COC(=O)/C=C\C(C#N)(C#N)N=Cc1ccc(OC)cc1	47*	-3	4	1.9
CC(=O)NC1CCC(OC(=O)Nc2ccccc2)CC1 (stereo unspecified)	-3	7	3	0.8
Cc1cc(C(=O)COC(=O)Cc2n[nH]c(=O)c3ccccc23)c(C)n1CC(F)(F)F	0	-1	2	-3.3
CCOC(=O)c1c(C)[nH]c(C(=O)COC(=O)[C@H](C)N2C(=O)C3CCCCC3C2=O)c1C (stereo partly specified)	14	-33	-30	-5.7
CC(=O)c1ccc(OCc2cn(CC(=O)c3ccc(O)cc3)nn2)cc1	-3	-16	-10	-2.0
O=C(Cc1cccc(NC(=O)C2CCCN(C(=O)CCc3ccccc3)C2)c1)Nc1ccc(C(=O)N2CCCCC2)cc1 (stereo unspecified)	3	-10	-11	4.6
CC1(CNC(=O)C(=O)NCC2(C)CO2)CO1 (stereo unspecified)	-2	15	11	-1.4
COc1ccccc1-n1nnnc1SCC(=O)NCC1(N2CCCCC2)CCCCC1	-3	4	-2	9.2
COc1ccc(OC)c(NC(=O)C(C)OC(=O)c2cc3ccccc3[nH]2)c1 (stereo unspecified)	-1	-17	-18	-4.1
O=c1oc2ccccc2c2c1ccc1ccccc12	2	-39	-70	-7.9
c1ccc(Nc2cccc3ccccc23)cc1	-4	-17	-18	-20
O=C(CCNS(=O)(=O)c1ccc(OC(F)(F)F)cc1)Nc1cccc(S(=O)(=O)N2CCCC2)c1	2	-17	-39	0.4
CC(=O)Oc1ccc(Cl)cc1CN(C(C)=O)C1CCCCC1	-1	-14	-21	-2.4
O=[N+]([O-])c1cc(Br)ccc1C[n+]1ccccc1	10	8	-3	3.2
CN(C)c1nc(N)c(C#N)c(C#N)c1C#N	0	7	-2	3.0
COc1ccccc1NC(=O)C(C)OC(=O)Cc1ccsc1 (stereo unspecified)	-6	0	-4	-0.8
COc1ccc(-c2noc(CCC(=O)N3CCN(c4cccc(Cl)c4)CC3)n2)cc1	0	-1	-1	12
CCCCN(C(=O)C1CC(=O)N(c2ccc(CC)cc2)C1)c1c(N)n(CCC)c(=O)[nH]c1=O (stereo unspecified)	-2	6	2	2.1
CCOc1ccc(-c2nnc3ccc(SCC(=O)N4CCN(c5ccccc5)CC4)nn23)cc1	31	1	1	-6.5
COc1ccccc1NS(=O)(=O)c1cc(C(=O)NCCCN2CCCC2=O)ccc1C	3	-23	-35	-8.5
COc1ccccc1CNC(=O)c1ccccc1SCC(=O)NCc1ccco1	3	4	1	0.0
Cc1n[nH]c(C)c1S(=O)(=O)N1CCN(S(=O)(=O)c2cccc(F)c2)CC1	-9	5	9	0.1
COc1ccccc1[C@@H]1C(c2ccccc2)=NN(c2ccccc2)[C@H]1C(=O)N1CCOC1=O	-6	17	16	5.2
O=C1[C@@H](Oc2ccccc2)[C@@H](c2ccncc2)N1c1ccncc1	1	7	11	-1.6

An excerpt from above in order of heavy-atom count, rising:
SMILES	B2AR ag	rRNA inh HTS	rRNA inh HTS OD600	rRNA inh HTS RFP
CC1(CNC(=O)C(=O)NCC2(C)CO2)CO1 (stereo unspecified)	-2	15	11	-1.4
O=[N+]([O-])c1cc(Br)ccc1C[n+]1ccccc1	10	8	-3	3.2
O=c1oc2ccccc2c2c1ccc1ccccc12	2	-39	-70	-7.9
CC(=O)NC1CCC(OC(=O)Nc2ccccc2)CC1 (stereo unspecified)	-3	7	3	0.8
COC(=O)/C=C\C(C#N)(C#N)N=Cc1ccc(OC)cc1	47*	-3	4	1.9
O=C1[C@@H](Oc2ccccc2)[C@@H](c2ccncc2)N1c1ccncc1	1	7	11	-1.6
Cc1n[nH]c(C)c1S(=O)(=O)N1CCN(S(=O)(=O)c2cccc(F)c2)CC1	-9	5	9	0.1
COc1ccc(OC)c(NC(=O)C(C)OC(=O)c2cc3ccccc3[nH]2)c1 (stereo unspecified)	-1	-17	-18	-4.1
COc1ccccc1CNC(=O)c1ccccc1SCC(=O)NCc1ccco1	3	4	1	0.0
Cc1cc(C(=O)COC(=O)Cc2n[nH]c(=O)c3ccccc23)c(C)n1CC(F)(F)F	0	-1	2	-3.3
CCOC(=O)c1c(C)[nH]c(C(=O)COC(=O)[C@H](C)N2C(=O)C3CCCCC3C2=O)c1C (stereo partly specified)	14	-33	-30	-5.7
COc1ccccc1[C@@H]1C(c2ccccc2)=NN(c2ccccc2)[C@H]1C(=O)N1CCOC1=O	-6	17	16	5.2
CCOc1ccc(-c2nnc3ccc(SCC(=O)N4CCN(c5ccccc5)CC4)nn23)cc1	31	1	1	-6.5
O=C(Cc1cccc(NC(=O)C2CCCN(C(=O)CCc3ccccc3)C2)c1)Nc1ccc(C(=O)N2CCCCC2)cc1 (stereo unspecified)	3	-10	-11	4.6

Next entries:
SMILES	B2AR ag	rRNA inh HTS	rRNA inh HTS OD600	rRNA inh HTS RFP
CN(CC(=O)Nc1ccc(OC(F)(F)F)cc1)C(=O)c1ccccc1SCC(=O)N1CCCC1	-8	-3	-2	-2.2
O=C([O-])c1cc(-c2ccccc2)cc(-c2ccccc2)[n+]1CCc1ccc(Cl)cc1	10	-56	-76	-29
COc1ccc(CCNC(=O)CN2C(=O)NC3(CCOc4ccccc43)C2=O)cc1 (stereo unspecified)	-2	0	1	-0.3
CC(=O)N[C@@H](C)C(=O)OC(C)C(=O)Nc1cccc([N+](=O)[O-])c1 (stereo partly specified)	-1	8	8	0.6
O=C1CCC2(CCCCC2)N1	-2	9	13	1.5
Cc1cc(C)nc(SCC(=O)NNS(=O)(=O)c2ccc(C#N)cc2)n1	0	13	3	-0.5
Cc1ccc(S(=O)(=O)N2CCN(C(=O)COC(=O)c3nc(Cl)ccc3Cl)CC2)c(C)c1	3	-2	-10	-1.3
COc1ccc(/C=C2\SC(=S)N(CC(=O)OCC(=O)Nc3ccc([N+](=O)[O-])cc3OC)C2=O)cc1	-3	8	10	7.7
Cc1ccc(NS(=O)(=O)c2cccc(C(=O)NC3CCN(Cc4ccccc4)CC3)c2)cc1	33	-11	-18	5.1
O=C(c1ccc([N+](=O)[O-])cc1)N1CCOCC1	8	2	0	-0.1
C/C(CCC(C)C)=N\NC(=O)COc1ccccc1-c1ccccc1	-2	-9	-28	-4.2
O=C(Nc1ccccc1)SC1CCCCC1	4	9	-28	-8.9
COc1cccc(OCC(=O)NC2CCS(=O)(=O)C2)c1 (stereo unspecified)	7	14	11	-0.2
COc1ccc(-c2cccc(CCC(=O)N3CCN(c4cc(C)ccc4C)CC3)c2)cc1	2	8	6	-2.2
N#C/C(=C/c1ccc(-c2ccc(S(=O)(=O)N3CCOCC3)cc2)o1)C(=O)NC1CC1	6	-13	-18	8.8
CC(=O)c1c(C)[nH]c(C(=O)CN2CCN(S(=O)(=O)c3ccccc3[N+](=O)[O-])CC2)c1C	2	-6	3	1.6
CC(C)(C)N(Cc1ccccc1)C(=O)COC(=O)C1=NN(c2ccccc2)C(=O)CC1	-3	6	5	-0.2
Cc1cc(=O)oc2c(CN3CCOCC3)c(O)ccc12	-5	5	3	-3.2
CCOC(=O)C(Cc1nc(OCc2ccccc2)cc(OCc2ccccc2)n1)=NO	9	-34	-55	7.9
COc1cc2c(cc1OC)[C@@H](NC(=O)Cc1ccc(F)cc1)[C@H](OCc1ccccc1)C2	1	16	21	-1.4
O=C(CC(=O)N1CCOCC1)N1CCOCC1	-1	15	12	1.4
CCOc1ccc(OCCC(=O)OCC(=O)Nc2cc(S(=O)(=O)N3CCOCC3)ccc2OC)cc1	10	4	6	-2.0
O=C(c1cc2ccccc2[nH]1)N1O[C@@H]2C=C[C@H]1C2	1	1	5	1.9
CC(=O)Nc1ccc(NC(=O)C2CC(=O)N(Cc3ccco3)C2)cc1 (stereo unspecified)	-1	22	24	2.9
Cn1cnc2nc[nH]c2c1=O	0	9	7	5.7
SMILES	B2AR ag	rRNA inh HTS	rRNA inh HTS OD600	rRNA inh HTS RFP
C[C@H](O)[C@@H]1C(=O)N2CCc3ccc(-c4cccc(F)c4)cc3[C@@H]2C[C@@H]1N(C)C(=O)C(C)(C)C	-14	-28	-31	-7.1
Cc1ccccc1Nc1nnc(SCC(=O)c2c(N)n(C3CC3)c(=O)[nH]c2=O)s1	4	6	15	-0.2
COc1ccc(-c2ccc3c(c2)C2CC3CCN2Cc2ccc(OC(F)(F)F)cc2)cc1 (stereo unspecified)	-1	-1	1	1.5
CC1CCCC(NC(=O)NC(=O)COC(=O)C2=NN(c3ccccc3)C(=O)CC2)C1C (stereo unspecified)	0	-3	8	-0.1
C[C@H]1CN(S(=O)C(C)(C)C)[C@H](CCO)/C1=C\c1ccccc1 (stereo partly specified)	-6	6	-2	6.1
Nc1nc(SCc2ccccc2)c2ncn(C3OC(CO)C(O)C3O)c2n1 (stereo unspecified)	-1	-6	-13	-5.7
Cc1cc2nccnc2cc1C	1	14	16	1.9
CC12CCC(O)CC1=CCC1C2CCC2(C)C(c3ccn[nH]3)CCC12 (stereo unspecified)	44*	-13	-38	-7.6
COc1cc(C=NNc2nc3c([nH]2)c(=O)n(C)c(=O)n3C)ccc1O	-12	21	7	4.1
O=[N+]([O-])c1ccc(NN=Cc2cc(Br)ccc2O)nc1	5	-5	-11	-1.2
CC(=NNC(=S)N1CC2CCC(CC2)C1)c1cccc(C)n1	-5	3	7	5.5
COc1ccc(CCNC(=O)c2ccc3c(=O)n4c(nc3c2)CCC4)cc1OC	-6	-5	-2	-1.6
Cc1onc(-c2ccccc2)c1-c1nnc(COC(=O)c2ccc(O)cc2)o1	13	-12	-24	-2.9
O=C1OCCN1N=Cc1ccco1	-4	15	11	1.4
COCC(Cc1ccccc1)NC(=O)Cn1cc(C)c(=O)[nH]c1=O (stereo unspecified)	-3	7	7	2.7
Nc1nc(=S)ss1	3	-13*	9.8*	-1.8*
Cc1c(NC(=O)c2nn(CC(C)C)c(=O)c3ccccc23)c(=O)n(-c2ccccc2)n1C	-8	7	11	3.4
CC[C@]12c3[nH]c4cc(CCC(=O)N(C)C)ccc4c3CCN1C(=O)[C@@H](CC(=O)NCCN1CCOCC1)C[C@@H]2C(=O)N1CCN(C(=O)c2ccco2)CC1	3	5	10	2.6
CCc1noc(C)c1C(=O)OCC(=O)Nc1ccccc1SC	3	-2	-9	-4.1
COc1ccc(C(=O)c2ccccc2C(=O)c2ccccc2)cc1	24	3	-33	-4.3
COc1cc2c(cc1OC)C(=Cc1ccc(N(C)C)cc1)C=C2	3	-9	-6	0.1

From PubChem BioAssay
